Vaccinia Venus: qHTS for Stage-Specific Inhibitors of Vaccinia Orthopoxvirus: Venus Reporter Primary qHTS; 330,000 tested, 0.46% active; Vaccinia virus Venus reporter expression, fluorescence; Potency, µM (top dose mostly 36.5 µM), for the others: at the highest dose activity change, negative = inhibition, most hits filed as inhibitors; active means well fitted inhibition curve with a large enough effect; inconclusive means small, poorly fitted or top-dose-only effect; inactive means no such curve, though single readings can be large or run the other way; tested in A549 cells; further: nearly all actives have a fitted effect of over 30% in size; inactives centre near -10
Vaccinia mCherry: qHTS for Stage-Specific Inhibitors of Vaccinia Orthopoxvirus: mCherry Reporter Primary qHTS. Vaccinia virus mCherry reporter infection, fluorescence; about a quarter of the inactives have no number. Potency, µM (top dose mostly 36.5 µM), for the others: at the highest dose activity change, negative = inhibition, usual class: inhibitors. 310,000 tested, 0.63% active. AID 720579, 2013; active = well fitted inhibition curve with a large enough effect; inconclusive = small, poorly fitted or top-dose-only effect; inactive = no such curve, though single readings can be large or run the other way; tested in A549 cells; further: nearly all actives have a fitted effect of over 35% in size; inactives centre near -10
Numbers without * were called inactive; i = inactive; u = inconclusive; x = not tested or not shown; [ ] = remark or other dose. On the % scale 0 is the no-effect control and ±100 the full control effect; potency means the concentration at half of the fitted maximal effect.

Compound	Vaccinia Venus	Vaccinia mCherry
COc1ccc(S(=O)(=O)c2cnc3ccc(OC)cc3c2N2CCC3(CC2)OCCO3)cc1	-22.2%	-9.9%
CCc1nn(CC(=O)NCCCN(CC(C)C)CC(C)C)c(=O)c2cc3sc(C)cc3n12	-1.3%	-7.9%
CC(C)OCCCN(C)C1CCN(S(=O)(=O)c2ccc(-c3ccc(=O)[nH]n3)s2)CC1	-13.5%	i
Cn1cc(C(=O)C(=O)N2CCCc3ccccc32)c2ccccc21	u	-23.1%
OC(c1ccccn1)c1c[nH]c2ccccc12 (stereo not drawn)	-1.9%	i
CCCCN(C(=O)c1ccc(Cl)c([N+](=O)[O-])c1)c1c(N)n(CCC)c(=O)[nH]c1=O	-0.2%	3.2%
C[C@@H]1NC(=O)[C@H](CCC(N)=O)NC(=O)c2cc([N+](=O)[O-])cc(I)c2NCCC[C@@H](C(N)=O)NC1=O	-16.8%	i
C=CCn1c(SCC(C)=O)nc2scc(-c3ccc(C)o3)c2c1=O	-18.9%	-1.5%
O=C(Cn1nc2c(cc1=O)CCCC2)NCc1ccc(Cl)cc1	-23.4%	-27.9%
COCCN1C(=O)c2ccc(C(=O)Nc3nccs3)cc2C1=O	-8.8%	-22.6%
O=C(c1ccc(S(=O)(=O)NCc2ccco2)cc1)N1CCN(Cc2ccccc2)CC1	-22.2%	-28.8%
CC(=O)N1CCN(Cc2nc(-c3cccc(Cl)c3)no2)CC1	-20.0%	-0.3%
O=S(=O)(NCCOC12CC3CC(CC(C3)C1)C2)c1cccc2nsnc12	-29.2%	x
Cc1cc(C)c(C)c(S(=O)(=O)N2CCN(C(=O)c3ccc4c(=O)n5c(nc4c3)CCC5)CC2)c1C	-29.2%	-29.3%
O=C(CCn1nc(-c2ccccc2)c2ccccc2c1=O)Nc1ccccc1	-2.5%	-13.6%
CCCCN(CCCC)CCNC(=O)CN1C(=O)CSc2ccc(S(=O)(=O)N3CCCCC3)cc21	-11.3%	i
CN1CCN(c2ccc(C(=O)c3ccc(F)cc3)cc2)CC1	-5.3%	-13.0%
O=C(C1=C[C@@H]2[C@H]3C(=O)N(c4ccc(Cl)cc4)C(=O)[C@H]3[C@@H](C(=O)c3ccc(Cl)cc3)N2C=C1)c1ccccc1	-6.3%	-9.6%
COC(=O)c1cccnc1NC(=S)NC(C)C	-13.5%	-2.6%
O=[N+]([O-])c1ccc(C(O)CN2CCN(Cc3ccccc3)CC2)cc1 (stereo not drawn)	-3.4%	u

Reprinted at random: 7 compounds from above
Compound	Vaccinia Venus	Vaccinia mCherry
COc1ccc(S(=O)(=O)c2cnc3ccc(OC)cc3c2N2CCC3(CC2)OCCO3)cc1	-22.2%	-9.9%
CCCCN(C(=O)c1ccc(Cl)c([N+](=O)[O-])c1)c1c(N)n(CCC)c(=O)[nH]c1=O	-0.2%	3.2%
COCCN1C(=O)c2ccc(C(=O)Nc3nccs3)cc2C1=O	-8.8%	-22.6%
CCCCN(CCCC)CCNC(=O)CN1C(=O)CSc2ccc(S(=O)(=O)N3CCCCC3)cc21	-11.3%	i
Cn1cc(C(=O)C(=O)N2CCCc3ccccc32)c2ccccc21	u	-23.1%
Cc1cc(C)c(C)c(S(=O)(=O)N2CCN(C(=O)c3ccc4c(=O)n5c(nc4c3)CCC5)CC2)c1C	-29.2%	-29.3%
O=S(=O)(NCCOC12CC3CC(CC(C3)C1)C2)c1cccc2nsnc12	-29.2%	x

Continued.
Compound	Vaccinia Venus	Vaccinia mCherry
CCOC(=O)Cn1c(=O)oc2cc(S(=O)(=O)N3CCCc4ccccc43)ccc21	-2.7%	i
C/C(Cn1nc([N+](=O)[O-])cc1C)=N\NC(=O)COc1ccc(Cl)cc1Cl	-11.2%	-11.3%
CC(=O)c1c(C)[nH]c(C(=O)N2CCc3ccccc32)c1C	-7.2%	-12.2%
Cc1cccc(CNc2ncncc2-c2ccccc2C(F)(F)F)c1	0.0%	i
COc1ccccc1N1CCN(C(=O)C2CCN(S(=O)(=O)c3cccs3)CC2)CC1	-3.0%	-8.8%
CCCn1c(SCC(=O)Nc2c(C)cccc2C)nnc1C(C)C	-24.1%	i
COc1ccc(OCCNC(=O)/C=C/c2ccc([N+](=O)[O-])cc2)cc1	-13.1%	-17.1%
O=C1[C@H]2[C@@H](c3ccc(F)cc3)N3C(=O)N(c4cccc(Br)c4)C(=O)[C@@]3(Cc3ccccc3)[C@H]2C(=O)N1C1CCCCC1	u	-11.1%
COc1ccc(N2CC(NC(=O)N(C)CCC#N)CC2=O)cc1 (stereo not drawn)	1.3%	-29.8%
CC(Oc1ccc2c(c1)oc(=O)c1ccccc12)C(=O)NCC1CCC(C(=O)O)CC1 (stereo not drawn)	-3.9%	-1.9%
CC(C)N1CCC(N2CCN(Cc3ccc(-c4ccc(Cl)cc4)o3)CC2CCO)CC1 (stereo not drawn)	u	-25.2%
Cn1c(SCc2n[nH]c(=S)n2-c2ccccc2)nnc1-c1ccccc1	-0.3%	i
Cc1ccc2oc(C(=O)NCCC3CCCCO3)c(C)c2c1 (stereo not drawn)	-12.7%	i
Nc1oc2ccccc2c(=O)c1C=O	-0.9%	-13.0%
CCOc1nc(C)cc(C)c1S(=O)(=O)c1ccc(Cl)cc1	-5.6%	-4.6%
CN(CC(=O)Nc1ccc(N2CCOCC2)cc1)C(=O)C1CCCC1	-16.6%	-1.5%
Nc1cccc[n+]1C(c1ccnc2ccccc12)[n+]1ccccc1N	-4.9%	13.9%
CCC(CO)Oc1cc(NC(=O)c2cccc3ccccc23)c2ncn(C(C)C)c2c1 (stereo not drawn)	u	-24.9%
Nc1cccc(Nc2ccccc2)c1	-1.9%	-22.9%
O=C1NCCN(CC2CCN(CCc3ccc(Cl)c(Cl)c3)CC2)C1=O	-17.7%	-8.4%
O=C(OCCN1C(=O)c2ccccc2C1=O)c1cc2ccccc2o1	-18.4%	-13.9%
CC1CCc2nc3ncn(Cc4ccccc4F)c(=O)c3cc2C1 (stereo not drawn)	-9.2%	-7.1%
N#CCc1nc(CSc2nc3ccccc3s2)cs1	-4.1%	-9.1%
CCOC(=O)CSc1nnc(NC(=O)c2cccc(S(=O)(=O)N3CCCCC3)c2)s1	-3.0%	i
CCCCCNC(=O)Cc1cc(=O)[nH]c(=O)[nH]1	21.8%	37.3%[activator]
CCCCCCNC(=O)Cc1ccc(Br)cc1	-5.5%	i
COc1ccc(/C=N/NS(=O)(=O)c2ccc(F)cc2)cc1COc1cc(F)ccc1[N+](=O)[O-]	-12.1%	-2.0%
Cc1cc(OCc2cc(C(=O)NC(C)c3cnn(C)c3)no2)cc(C)c1Cl (stereo not drawn)	u	-1.2%
CCOC(=O)N1CCN(C(=O)Cc2ccc(C)cc2)CC1	-1.7%	i
COc1cccc(NC(=O)C2CCCN(c3ncnc4c3nc3n4CCCCC3)C2)c1 (stereo not drawn)	-23.4%	-15.9%
O=C(CCc1nc2ccccc2c(=O)[nH]1)OCC(=O)c1cccc(Cl)c1	-16.0%	-22.0%
CC1(C)C(=O)NCCN1C(=O)CSc1nccc(-c2ccc(Br)cc2)n1	-18.2%	-27.6%
CCOc1ccc(S(=O)(=O)NCC(c2ccc(N(C)C)cc2)N2CCc3ccccc32)cc1 (stereo not drawn)	0.4%	i
O=C(Nc1nccs1)c1cccnc1	-6.4%	i
COc1ccc(C(C)(C)C)cc1NC(=O)C1CC=CCC1C(=O)O (stereo not drawn)	-11.1%	-14.3%
NS(=O)(=O)c1ccc(CCNC(=O)COC(=O)C2CCC2)cc1	3.2%	-10.4%
O=S(=O)(Nc1ccc(N2CCCCC2)cc1)c1cccs1	-2.2%	-21.8%
Cc1ccc(-c2cc(=O)c3cc(C)ccc3[nH]2)cc1	u	-0.3%
O=C(O)Cc1sc(Nc2ccccc2Cl)nc1-c1ccccc1	-3.0%	1.8%
CN1c2ccc([N+](=O)[O-])cc2N(C)C1(C)c1ccccc1 (stereo not drawn)	-7.5%	u
COc1ccc(-c2noc(CSCC(=O)Nc3cccc(C(F)(F)F)c3)n2)cc1OC	-8.6%	i
O=C(Nc1ccc2c(c1)CN(C(=O)Nc1ccc(F)cc1)CC2)c1ccccn1	u	u
CCCN1CC=C2C(C#N)=C(N)C(C#N)(C#N)C(c3cc(OC)ccc3OC)C2C1 (stereo not drawn)	-0.2%	-5.9%
CC(=O)c1ccc(N(CC(=O)NC2CCCC2)C(=O)c2csnn2)cc1	2.1%	i
COc1ccc(NC(=O)Cn2c(=O)n(Cc3nc(-c4ccccc4)no3)c(=O)c3cc4c(cc32)OCO4)c(OC)c1	-9.3%	-18.1%
CCC(C(=O)NNC(=O)c1cnccn1)c1ccccc1 (stereo not drawn)	-20.2%	u
CC(C)N(Cc1nc(-c2ccccc2)no1)S(=O)(=O)c1ccccc1	-22.9%	-2.0%
C=CCc1c(C)nc(C)nc1N/N=C/c1ccc([N+](=O)[O-])cc1	-22.1%	x
O=c1cc(Nc2ccc3c(c2)OCCO3)[nH]c(=O)n1-c1ccc(Cl)cc1	-18.3%	u
Nc1sc2c(c1C(=O)NC1CCS(=O)(=O)C1)CCCC2 (stereo not drawn)	-5.1%	-3.7%
CCC(C)N(C(=O)Cn1nnc2ccccc21)C(C(=O)NCc1ccco1)c1cccc(OC)c1 (stereo not drawn)	-3.9%	x
CCCCCN(C(=O)NC(=O)Nc1cccc(C)c1C)S(C)(=O)=O	-12.9%	i
Cc1cc(=O)n2c(nc3ccccc32)s1	-5.1%	2.0%
CN1CCc2c(OCC(=O)NC3CCCCC3)cccc2C1=O	-11.3%	i
CCOc1ccc(N2C(=O)Nc3ccc(Br)cc3C2(O)C(=O)NCCN(C)C)cc1 (stereo not drawn)	-2.3%	-3.9%
CC(=O)Nc1ccc(C(=O)OCC(=O)Nc2ccc([N+](=O)[O-])cc2C(F)(F)F)cc1	-12.0%	-10.8%
COC(=O)c1ccc2c(c1)N(Cc1cc(C)ccc1C)C(=O)c1ccccc1S2(=O)=O	-6.3%	-8.5%
CN(CC(=O)Nc1ncn[nH]1)S(=O)(=O)c1cc(Cl)ccc1Cl	-9.2%	-6.0%
COc1ccc(N2CCN(C(c3ccccc3)c3nnnn3C(C)(C)C)CC2)cc1 (stereo not drawn)	-3.6%	i
C/C=C(\C)CN1CCN(c2cccc(C)c2C)CC1	-6.9%	i

Some of the entries so far, with two lines to a compound:
Each structure is followed by: Vaccinia Venus	Vaccinia mCherry
Nc1sc2c(c1C(=O)NC1CCS(=O)(=O)C1)CCCC2 (stereo not drawn)
  -5.1%	-3.7%
CCC(C)N(C(=O)Cn1nnc2ccccc21)C(C(=O)NCc1ccco1)c1cccc(OC)c1 (stereo not drawn)
  -3.9%	x

Following part:
Compound	Vaccinia Venus	Vaccinia mCherry
Cn1cc(C(c2ccccn2)c2cn(C)c3ccccc23)c2ccccc21	-20.0%	u
O=C(Nc1cccc2ncccc12)c1ccc(F)cc1	-3.0%	-13.8%
Cc1cc(=O)[nH]c(SCC(=O)NC(c2ccccc2)c2ccccc2)n1	-17.4%	-26.7%
CCOc1ccc(NC(=O)Nc2c(C)n(C)n(-c3ccccc3)c2=O)cc1	1.8%	-9.9%
CCNc1nc(NCC)nc(C(=O)Nc2ccccc2)n1	2.2%	x
OCCC#Cc1ccc(CN2CCN(CCc3ccccc3)C(CCO)C2)cc1 (stereo not drawn)	-12.6%	i
COc1cccc(C(=O)COc2ccc3c(C)c(Cc4ccccc4)c(=O)oc3c2)c1	-11.5%	i
CCOC(=O)C(CC)Sc1ncnc2c1c(-c1ccccc1)cn2-c1ccc(OC)cc1 (stereo not drawn)	-12.2%	-10.3%
COc1cc(Cl)c(C)cc1NC(=O)CSc1nc2c(c(=O)[nH]1)CCC2	14.9%	-0.3%
CCn1cc(C(=O)Nn2cnnc2)c(=O)c2ccc(C)nc21	-13.2%	-18.2%
O=C(Cn1c(=O)n(-c2ccccc2Cl)c(=O)c2sc3ccccc3c21)NC1CCCCC1	-8.1%	-6.0%
NC(=O)N/N=C/c1cc(Br)ccc1OCC(=O)NCc1ccccc1	-13.2%	-20.6%
Cc1noc(C)c1CSc1nnnn1-c1ccc(Cl)cc1	-12.5%	x
CNC(=O)c1[nH]cnc1C(=O)Nc1ccc(Cl)cc1	u	i
Cc1ccc(C(=O)Nc2ccccc2C(=O)N2CC(C)OC(C)C2)cc1 (stereo not drawn)	-8.8%	-18.6%
CN(C)CCCNC(=O)C[C@H]1C[C@H](C(=O)N2CCCCC2)[C@@]2(CCc3ccccc3)c3[nH]c4cc(-c5ccco5)ccc4c3CCN2C1=O	-27.0%	u
CCn1c(SCC(=O)N2CCCCC2)nc2c(c1=O)SC(C)C2 (stereo not drawn)	4.5%	29.5%
Cn1c(Cc2ccccc2)nnc1SCC(=O)NC1CC1	-13.0%	-3.0%
CCOc1ccccc1N1CC(C(=O)Nc2ccccc2N2CCOCC2)CC1=O (stereo not drawn)	-11.1%	i
Cc1cc(C)nc(SCC(=O)N2CCC(C(N)=O)CC2)n1	-5.8%	-10.6%

Some values from the results shown:
For Vaccinia Venus, NC(=O)N/N=C/c1cc(Br)ccc1OCC(=O)NCc1ccccc1 is entered as -13.2%
For Vaccinia Venus, CCn1cc(C(=O)Nn2cnnc2)c(=O)c2ccc(C)nc21 is entered as -13.2%

Source: PubChem BioAssay
